Screening results as filed in PubChem BioAssay.
Sa RN4220 lethal = kills Staphylococcus aureus RN4220; S. aureus RN4220 growth, OD600, 16 h; inhibition, % (concentration not given with the values); 0.33% of 330,000 active;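 active = z-score of -3 or lower and OD600 up to 0.18 on both plates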;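 also: plate controls were untreated cells for no effect and reference antibiotic for full effect; stock transfer was 100 nL into about 80 µL; one replicate is shown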
Mtb hypoxia rep = Mtb hypoxia fluorescent reporter inhibition; M. tuberculosis hypoxia-regulated fluorescent reporter, fluorescence; fluorescence inhibition, % (no concentration beside the values); 0.1% of 300,000 active;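 active = 35 to 45% if threefold the growth effect, above 45% if 1.5-fold the growth effect; inactive = the rest, general growth blockers included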;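 also: wells of about 50 µL received 100 nL stock; 0% = vehicle wells and 100% = reference inhibitor wells; whole bacteria with a GFP reporter of the hypoxia response; strong numbers were not always called active; many hits fall short of the cut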
Sa ugtP lethal = kills S. aureus RN4220 lacking UgtP. S. aureus RN4220 ugtP deletion, OD600 growth, 16 h; some inactives read as strong as hits. growth inhibition, % (concentration not given with the values). 0.54% of 330,000 active. AID 1259309;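 active = z-score under -3 and OD600 up to 0.15 on both plates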;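 also: plate controls were untreated wells for no effect and antibiotic for full effect; wells of about 80 µL received 100 nL stock; the first replicate is given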
BJeLR viability = kills HRASV12-expressing BJeLR cells; BJeLR (HRASV12) viability, CellTiter-Glo ATP luminescence, 48 h; reference of the scale not given here; inhibition, % (test concentration not listed); 0.17% of 300,000 active; AID 1554;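 active = replicate mean above 50%; inconclusive = above 50% but judged a plate artefact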;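 also: 50 nL library stock added to about 25 µL; numbers are from one replicate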
Autofluor counter = flagged as autofluorescent in microsphere protease counterscreen | compound autofluorescence counterscreen, microsphere flow cytometry; hits give high values | fluorescence intensity (no concentration beside the values) | 3.1% of 360,000 active;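 active = at least 3 SD above the mean of all compounds, about 16000 in these data; inconclusive = too few beads counted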;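 also: 100 nL of 1 mM stock went into each well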
PrP UTR inh = inhibition of PrP 5' UTR reporter expression; 0.35% of 340,000 active; cell-based PrP 5' UTR mRNA reporter, plate reader; inhibition, % (test concentration not listed);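 active = every replicate at 50% or more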;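 also: 0 = median of the neutral control wells; tested in H4 reporter cells; numbers are from one replicate; inactives centre near -14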
Mtb hypoxia rep growth = second read-out of Mtb hypoxia rep, no call of its own (marks repeat the call); growth inhibition, %; measured here: M. tuberculosis growth (absorbance);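 0% = vehicle and 100% = reference antibiotic; read after six days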
Numbers without * were called inactive; ? = inconclusive; / = not tested or not shown. The order is random; 4% or so of the library scored in one or more.

SMILES	Sa RN4220 lethal	Mtb hypoxia rep	Mtb hypoxia rep growth	Sa ugtP lethal	BJeLR viability	Autofluor counter	PrP UTR inh
O=C1CC(C(=O)Nc2ccc(Cl)cc2[N+](=O)[O-])C2(CCCCC2)O1 (configuration not stated)	-3.6	-8	3	-3	-2	2584	-20
Cc1nc(N2CCC(C)CC2)c2c(C)c(C(=O)O)sc2n1	7.5	-5	6	7	-2	3358	-10
CCOC(=O)c1c(NC(=O)C2C3C=CC(C3)C2C(=O)O)sc2c1CCCC2 (configuration not stated)	10	4	0	16	13	4815	-6
Cc1cccc(Nc2ncnc3onc(-c4ccc(F)cc4)c23)c1C	3.6	5	8	4	1	4046	-29
O=[N+]([O-])c1cccnc1Sc1ccc(F)cc1	1.8	-2	7	-3	1	2985	/
COC(=O)c1ccccc1NC(=O)NC1CC1	1.1	5	6	5	0	2502	-25
COc1cc(-c2cc(C(=O)Nc3ccccc3N3CCOCC3)c3ccccc3n2)cc(OC)c1OC	7.3	7	6	-1	-1	5022	-12
CN(C)C=NC(=O)c1cccn1-c1ncc(C(F)(F)F)cc1Cl	1.0	3	5	11	8	4874	-13
CC(C)C[C@H](NC(=O)OC(C)(C)C)C(=O)N1CCC(C(=O)O)CC1	/	/	/	/	-14	3280	-9
COc1cccc2cc(C(=O)NCCc3ccccc3)oc12	3.2	7	9	-12	-1	5595	-31

Record cards, from the list above. Values in the order: Sa RN4220 lethal | Mtb hypoxia rep | Mtb hypoxia rep growth | Sa ugtP lethal | BJeLR viability | Autofluor counter | PrP UTR inh
Profile of `COC(=O)c1ccccc1NC(=O)NC1CC1` : 1.1 | 5 | 6 | 5 | 0 | 2502 | -25
Profile of `COc1cc(-c2cc(C(=O)Nc3ccccc3N3CCOCC3)c3ccccc3n2)cc(OC)c1OC` : 7.3 | 7 | 6 | -1 | -1 | 5022 | -12
Profile of `CC(C)C[C@H](NC(=O)OC(C)(C)C)C(=O)N1CCC(C(=O)O)CC1` : / | / | / | / | -14 | 3280 | -9
Profile of `Cc1cccc(Nc2ncnc3onc(-c4ccc(F)cc4)c23)c1C` : 3.6 | 5 | 8 | 4 | 1 | 4046 | -29

Further entries follow.
SMILES	Sa RN4220 lethal	Mtb hypoxia rep	Mtb hypoxia rep growth	Sa ugtP lethal	BJeLR viability	Autofluor counter	PrP UTR inh
O=C(CCCc1ccccc1)N1CCN(c2ccc([N+](=O)[O-])cc2)CC1	-1.4	/	/	4	-5	2038	-21
C/C(=N\Nc1ccc([N+](=O)[O-])cc1[N+](=O)[O-])c1cccnc1	/	/	/	/	-10	4096	-5
CC(C)c1cc(C(=O)N/N=C/c2ccoc2)c(O)c(C(C)C)c1	/	/	/	/	5	5528	-15
CC1CCCCN1C(=O)c1cc2nc(-c3ccccc3)cc(-c3ccccc3)n2n1 (configuration not stated)	-6.3	/	/	-3	-6	4872	20
O=C(Cn1c(=S)nc2ccccn21)N1CCc2ccccc2C1	5.8	6	4	-1	-7	/	-42
CN(CC(=O)Nc1ccc(Cl)cc1)C(=O)c1cc(-c2cccs2)nn1-c1ccccc1	3.6	14	3	10	2	5316	-14
Cc1cc(C)n(CCCN2CCC(C(=O)Nc3cccc(-c4cccc(F)c4)c3)CC2)n1	-3.0	10	10	-16	5	7098	4
CCOC(=O)Cc1nc2nc(C)cc(C)n2n1	7.2	11	5	4	-2	4604	-21
Cc1ccc(C)c(Cn2c(O)c(N=NC(=S)Nc3ccccc3F)c3ccccc32)c1	-0.5	-3	2	-5	4	4281	4
COc1ccc(-n2c(C)nnc2SCC(=O)Nc2ccccc2F)cc1	1.3	3	-2	-2	-6	3943	-20
CN(C(=O)CSc1nc(N)c2c3c(sc2n1)CSC(C)(C)C3)c1ccccc1	4.2	0	9	-9	4	2182	-5
COc1ccc(N=C2NC(=O)C(CC(=O)NCCc3ccc(OC)c(OC)c3)S2)cc1 (configuration not stated)	1.6	-9	-2	2	-3	2612	-11
Clc1ccccc1OCc1nc(-c2ccncc2)no1	0.1	3	15	4	/	4520	-76
Cc1ccc(NCC(=O)NN=Cc2ccncc2)cc1	4.5	5	2	-1	/	/	/
CC(=O)CSc1nnc(-c2ccc(S(=O)(=O)N3CCCC3)cc2)n1C	-2.3	5	5	5	2	3870	-20
COc1cccc(NC(=O)Cc2c(O)c3ccccc3[nH]c2=O)c1	4.0	1	10	3	4	2440	-10
NC(=S)NNc1ccnc2cc(Cl)ccc12	10	3	8	0	3	4307	-54
Cc1cccc(N2CCN(Cc3ccc(Br)o3)CC2)c1C	11	0	6	15	5	3827	-10
COc1cccc2cc(C(=O)OC3CCN(C)CC3)c(=O)oc12	5.4	2	1	15	5	5449	-15
COCCNC(=O)Cn1cc(C(=O)c2ccco2)c2ccccc21	1.5	8	15	1	-1	4241	-3
COC(=O)c1cc(S(=O)(=O)NCC2CCN(Cc3ccc(Cl)cc3)CC2)cn1C	2.9	7	-1	12	1	5474	2
CC(C)[C@H]1COCCS(=O)(=O)N1Cc1ccccc1-c1ccc(F)cc1	8.3	-5	0	-10	/	3654	-49
O=C(NC1CCCCC1)c1ccc(S(=O)(=O)c2ccccc2)cc1	-4.2	-2	9	10	4	4533	-4
CC(=O)N/N=C(/c1ccccc1)C(O)c1ccccc1 (configuration not stated)	/	/	/	/	1	3947	-21
CCCc1cc(=O)n2[nH]c(C)cc2n1	5.7	3	5	13	6	24507*	-40
CSc1ccccc1NC(=O)c1ccoc1C	8.0	11	11	14	4	7691	-17
Cc1ccc(CCNC(=O)C2CCCN(S(=O)(=O)c3c(C)noc3C)C2)cc1 (configuration not stated)	0.5	/	/	1	0	4180	-15
CC(NC(=O)c1cc(COc2cccc(C(F)(F)F)c2)on1)c1nccs1 (configuration not stated)	0.8	8	-9	-6	-11	6177	-33
O=C(c1cc(N2C(=O)C3C4CCC(C4)C3C2=O)ccc1Cl)N1CCN(c2ccc(F)cc2)CC1 (configuration not stated)	9.2	6	5	2	18	2231	0
CC(=O)c1c(O)n(C)c(=S)n(-c2ccccc2)c1=O	1.2	2	3	0	1	9700	-10
CC(=O)N[C@H]1C(O)O[C@H](CO)[C@@H](O)[C@@H]1O (some centres not stated)	/	/	/	/	-8	5843	-1
O=C(CNC(=O)c1ccco1)OCN1C(=O)c2ccccc2C1=O	-10	4	8	-4	2	2931	-13
COc1ccc2c(ccc[n+]2CC(=O)c2ccc(C)cc2)c1	2.1	15	-4	2	3	4405	-1
COc1ccccc1C(=O)C1CCCN(Cc2ccc3c(c2)OCCO3)C1 (configuration not stated)	1.8	15	5	2	3	4354	-5
O=C(Cc1c[nH]c2ccccc12)NCc1ccc(Cl)cc1Cl	-4.2	7	6	-8	-4	2317	-27
COC(=O)CNc1nc(C2CC2)nc2c1nnn2Cc1ccccc1Cl	9.5	6	9	-7	-6	9070	/
Cc1ccccc1N1CCN(C2CCCN(C(=O)c3noc4c3CCCC4)C2)CC1 (configuration not stated)	-0.6	9	-3	2	-19	6191	-16
NC(=O)c1ccc(NC(=O)CCCN2C(=O)NC3(CCCC3)C2=O)cc1	-1.4	7	6	-2	/	7693	-12
O=C(CN(Cc1ccc(Br)cc1)S(=O)(=O)c1ccccc1)NCc1cccnc1	1.6	5	8	6	4	6427	-30
CCC(CO)Oc1cc(NCc2ccc(C(=O)O)cc2)c2ncn(C(C)C)c2c1 (configuration not stated)	5.6	11	4	-1	/	2995	-7
Cc1cc(C)cc(NC(=O)C2C3C=CC4(O3)C2C(=O)N(CCCN(C)C)C4C(=O)NC2CCCC(C)C2C)c1 (configuration not stated)	-0.3	6	12	6	2	5514	-13
Cc1ccccc1OCCCC(=O)Nc1ccccc1C(F)(F)F	3.6	/	/	-5	2	3831	-10
COc1ccc(-c2noc(CN(C(=O)c3c(-c4ccccc4Cl)noc3C)C(C)C)n2)cc1	4.1	/	/	4	0	3458	-10
CCOC(=O)c1c(S(=O)(=O)Nc2ccccn2)c(C)n(C)c1C	1.5	13	4	4	-9	5290	-17
O=C(c1cc(=O)[nH]c2ccccc12)N1CCN(c2cccc(C(F)(F)F)c2)CC1	-2.0	-10	-2	8	-2	4288	-24
CC(C)(O)C#Cc1ccc(CNC[C@H]2O[C@@H](n3cnc4c(N)ncnc43)[C@H](O)[C@@H]2O)s1	3.0	-7	-1	2	/	4088	-7
N#Cc1ccc(S(=O)(=O)N2CCN(C(=O)C3CC(=O)N(c4ccc5c(c4)OCCO5)C3)CC2)cc1 (configuration not stated)	9.0	12	7	4	/	3319	-14
O=C(NCC1CCCO1)C(=Cc1ccco1)NC(=O)c1ccccc1 (configuration not stated)	4.3	6	11	4	/	/	/
Nc1nnn(CC(=O)N/N=C/C=C/c2ccccc2)n1	/	/	/	/	-18	3005	-33
Cc1cnc(C(=O)OCC(=O)Nc2cccc(C)c2C)cn1	-0.4	-2	0	-2	/	?	9
(further entries)
SMILES	Sa RN4220 lethal	Mtb hypoxia rep	Mtb hypoxia rep growth	Sa ugtP lethal	BJeLR viability	Autofluor counter	PrP UTR inh
COc1ccc(C2CC(=O)c3cnc(NC(=O)c4cc(OC)cc(OC)c4)nc3C2)cc1 (configuration not stated)	5.7	6	7	2	-5	5635	-19
O=C(CCC1COc2ccccc2O1)NC1CCCCC1 (configuration not stated)	0.9	7	8	5	0	23549*	-10
O=C(COc1ccccc1)NCc1ccco1	1.0	/	/	4	/	3030	-17
CC1CN(C(=O)CCC(=O)NCCCc2ccccc2)c2ccccc2O1 (configuration not stated)	1.9	3	1	-3	2	5357	-13
COc1cc(OC)c(C(=S)N2CCCC2)cc1OC	2.8	-7	10	4	-1	3820	-17
Cc1nc(S(=O)(=O)c2cccc(Cl)c2)nc2c1CCC2	-16	2	5	-1	0	?	-9
Cc1ccc(C(=O)NCCCNc2ccccc2[N+](=O)[O-])cc1	4.6	-2	1	2	-12	4145	-34
COC(=O)C1=C(C)NC(=O)C1=Cc1cc(C)n(-c2cc(C)cc(C)c2)c1C	6.1	7	12	-5	/	/	/
O=[N+]([O-])c1cc(-c2cnc3ccccc3n2)ccc1Oc1ccc(F)cc1	-1.7	4	6	-20	-2	20404*	-31
CCC(C)(C)NC(=O)C(c1ccc(OC)cc1)N(Cc1ccc(OC)cc1)C(=O)CCC(=O)Nc1cc(C)on1 (configuration not stated)	2.1	4	2	2	6	5324	-9
O=C(OCC(=O)N1CCCC1)c1cc(Cl)ccc1Cl	4.4	21	9	3	-9	3211	-18
CCSCc1nnc(SCC(=O)Nc2nc(C)cs2)n1C	12	-3	1	5	8	/	/
Cc1cc(C)c2nc(-c3ccncc3)cc(C(=O)N3CCN(Cc4ccccc4Cl)CC3)c2c1	-1.4	-2	6	-6	-2	5703	-29
COc1ccc(-n2c(SCC(=O)Nc3ccc(C(=O)O)cc3)nnc2-c2ccccc2)cc1OC	2.4	2	-9	9	-2	3705	-11
COc1ccc(CNCc2ccc3ccccc3c2)c(OC)c1	2.5	1	1	-5	11	3152	-12
O=C(CSc1cn(CCNC(=O)c2cccs2)c2ccccc12)NCC1CCCO1 (configuration not stated)	-9.7	4	8	-4	4	5697	-20
COCC1=C(C(=O)OC)C(c2ccco2)n2ncnc2N1 (configuration not stated)	1.9	17	-1	13	-2	3877	/
CC(OC(=O)c1cccs1)C(=O)NCCc1ccccc1 (configuration not stated)	2.7	14	-3	2	-5	4052	8
CC1CCN(C(=O)CCc2nc3cc(S(=O)(=O)N(C)C)ccc3n2C)CC1	6.1	5	15	4	3	20932*	-34
CCC(=O)Nc1cccc(C2=NOC3(C2)CC(C(N)=O)N(C(=O)c2cc([N+](=O)[O-])cc([N+](=O)[O-])c2)C3)c1 (configuration not stated)	-0.9	2	-9	-3	/	/	/
CCCCn1c(N)c(N(CCOC)C(=O)c2cccc(S(=O)(=O)N(C)c3ccccc3)c2)c(=O)[nH]c1=O	2.3	7	-8	3	-6	5848	-14
CCc1ccccc1NC(=O)CCCN1C(=O)c2cccnc2C1=O	8.9	17	2	11	5	4215	-16
O=C(CCNC(=O)c1ccc(Br)cc1)NNC(=O)c1ccccc1O	3.1	1	-2	3	10	4920	-22
OC1(c2cccc(C(F)(F)F)c2)CCN(Cc2nnnn2Cc2ccccc2)CC1	4.5	6	7	-11	5	2645	-17
COc1cc(C(=O)OCCN2CCOCC2)ccc1O	2.3	/	/	7	13	3993	-5
